Polio RdRp inh: poliovirus RdRp elongation inhibitors, primary screen, biochemical, fluorescence polarization, total intensity; Genome polyprotein (Poliovirus type 1 (strain Mahoney)), P03300; poliovirus polymerase elongation; active compounds read low; % elongation, % (compound at 16.7 µg/mL); 150,000 compounds, 0.66% hits; AID 588519, 2011; in the data active means % elongation below about 90%; further: some results filed as inactive read as strong as hits
Target sequence (P03300 1749-2209 limits assumed): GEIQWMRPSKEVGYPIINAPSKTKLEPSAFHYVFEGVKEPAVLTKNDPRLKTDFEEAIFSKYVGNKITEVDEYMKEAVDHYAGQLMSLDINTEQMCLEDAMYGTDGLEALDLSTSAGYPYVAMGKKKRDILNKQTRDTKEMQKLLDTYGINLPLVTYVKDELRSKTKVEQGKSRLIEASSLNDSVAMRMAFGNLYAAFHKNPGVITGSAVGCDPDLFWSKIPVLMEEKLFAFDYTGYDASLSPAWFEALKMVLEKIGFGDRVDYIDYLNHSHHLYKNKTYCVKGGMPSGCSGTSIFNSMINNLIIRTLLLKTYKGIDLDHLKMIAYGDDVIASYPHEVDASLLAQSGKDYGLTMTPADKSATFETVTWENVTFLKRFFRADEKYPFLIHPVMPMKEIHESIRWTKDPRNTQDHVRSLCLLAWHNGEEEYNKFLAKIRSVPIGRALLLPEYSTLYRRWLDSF
Polio RdRp inh intensity: also measured in Polio RdRp inh; calls as there; % elongation; measured here: total intensity read-out; formula for this scale not given here;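 total fluorescence in place of polarization; lower means less elongation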
* hit, by the source's call.

SMILES | Polio RdRp inh | Polio RdRp inh intensity
Cc1ccc(CN(Cc2ccco2)C(=O)c2cccc(C)c2)cc1 | 110 | 113
COc1cccc(C(=O)Nc2ccc(-n3nncc3-c3ccccc3)cc2)c1 | 100 | 104
Cc1ccccc1OCc1ccc(-c2nc(C#N)c(N3CCN(c4cccc(Cl)c4)CC3)o2)o1 | 100 | 103
COc1ccc(NC(=O)c2ccc3nc(CCc4ccccc4)oc3c2)cc1 | 112 | 102
COc1ccc(-c2[nH]c3c(c2-c2c(-n4cccc4)n(C)c(=O)[nH]c2=O)c(=O)[nH]c(=O)n3C)cc1F | 108 | 99
Cc1noc(/C=C/c2cccs2)c1S(=O)(=O)N1CCC(C(=O)Nc2ccc(F)c(Cl)c2)CC1 | 105 | 111
CCS(=O)(=O)N1CC(=O)N(c2ccc(C)c(C)c2)C(C)(C(=O)NC2CCCCCC2)C1 (stereo not given) | 105 | 106
Cc1cccc(Nc2sc(C(=O)c3ccc(Cl)cc3)c(N)c2C(N)=O)c1 | 109 | 111
COc1ccc(-c2noc(CN3CCN(c4cccc(Cl)c4)CC3)n2)cc1 | 104 | 105
Cc1ccc(NC(=O)C(C)Sc2nc(=O)cc(N)n2-c2cccc(C)c2)cc1 (stereo not given) | 103 | 107
Cc1nc(N2CCCC2)ncc1C(=O)Nc1ccc(OC(F)(F)F)cc1 | 110 | 111
Cc1ccc(OC(=O)c2cc(-c3ccc4c(c3)OCCO4)on2)cc1C | 103 | 99
CC1(C)CC(=O)c2cc(-c3nc(-c4ccc(Cl)cc4)cs3)c(=O)n(-c3ccc(F)cc3)c2C1 | 107 | 107
COc1ccc(N2CCN(c3ncnc4onc(C)c34)CC2)cc1 | 109 | 104
CC(C)(C)c1ccc(C(=O)Nc2c(C(=O)c3ccc(F)cc3)oc3ccccc23)cc1 | 107 | 113
CC(=O)c1cccc(NS(=O)(=O)c2c(C)nc3sc(C)cn3c2=O)c1 | 109 | 108
O=C(Cn1c(=O)n(Cc2cccs2)c(=O)c2cccnc21)Nc1ccc(F)cc1 | 105 | 105
Cc1ccc(NC(=O)Cn2nc(N3CCN(c4ccccc4)CC3)ccc2=O)cc1F | 110 | 109
Cc1ccc(CNC(=O)c2ccc3c(c2)nc2n3CCCC2)cc1 | 110 | 114
O=C(CCn1c(=O)c2ccccc2n(Cc2cccc(Cl)c2)c1=O)NCCc1ccccc1 | 111 | 110
CCOC(=O)c1[nH]c(C)c(C(=O)NCCc2ccccc2)c1C | 108 | 110
Cc1ccc(C(=O)Nc2ccc(Cl)c(-c3nc4ncccc4o3)c2)c(C)c1 | 107 | 110
CCCOC(=O)c1c(NC(=O)C(C)Sc2nc(-c3ccccc3)cc(C(F)(F)F)n2)sc(C(=O)N(C)C)c1C (stereo not given) | 99 | 98
COc1ccccc1NC(=O)CSc1nc2c(oc3ccccc32)c(=O)n1-c1ccccc1F | 104 | 110
COc1ccc(F)cc1S(=O)(=O)NCCc1csc2nc(-c3cccc(C)c3)nn12 | 109 | 114

Some of these compounds in order of length of the SMILES, smallest number first:
SMILES | Polio RdRp inh | Polio RdRp inh intensity
Cc1ccc(CN(Cc2ccco2)C(=O)c2cccc(C)c2)cc1 | 110 | 113
COc1ccc(NC(=O)c2ccc3nc(CCc4ccccc4)oc3c2)cc1 | 112 | 102
Cc1cccc(Nc2sc(C(=O)c3ccc(Cl)cc3)c(N)c2C(N)=O)c1 | 109 | 111
Cc1ccc(C(=O)Nc2ccc(Cl)c(-c3nc4ncccc4o3)c2)c(C)c1 | 107 | 110

The main list resumes with the 3 entries that preceded the break.
SMILES | Polio RdRp inh | Polio RdRp inh intensity
CCCOC(=O)c1c(NC(=O)C(C)Sc2nc(-c3ccccc3)cc(C(F)(F)F)n2)sc(C(=O)N(C)C)c1C (stereo not given) | 99 | 98
COc1ccccc1NC(=O)CSc1nc2c(oc3ccccc32)c(=O)n1-c1ccccc1F | 104 | 110
COc1ccc(F)cc1S(=O)(=O)NCCc1csc2nc(-c3cccc(C)c3)nn12 | 109 | 114
CCCCN(C)CCNC(=O)CN1C(=O)CSc2ccc(S(=O)(=O)N3CCOCC3)cc21 | 101 | 103
COc1ccc(CNc2nc(-c3ccc(Cl)cc3)cc(C(F)(F)F)n2)cc1 | 99 | 101
CCOc1ccccc1NC(=O)c1c(NCc2ccc(C)o2)sc2c1CCCCC2 | 104 | 102
CCN(CC)c1ccc(NC(=O)CCCN2C(=O)C(c3ccccc3)Oc3cccnc32)c(C)c1 (stereo not given) | 101 | 106
Cc1ccc(NC(=O)CSc2nc3ccc(NC(=O)c4ccco4)cc3s2)c(C)c1 | 100 | 109
COc1ccc(-c2nn3c(=O)cc(CN4CCN(C(=O)Nc5ccc(C)c(Cl)c5)CC4)nc3s2)cc1 | 113 | 108
CC(=O)c1ccc(NC(=O)c2ccc(-c3nc(COc4ccc(C)cc4)c(C)o3)cc2)cc1 | 105 | 104
COc1ccc2oc(=O)c(C(=O)Nc3ccc(C(=O)O)cc3)cc2c1 | 107 | 106
COc1ccc(-c2nn3c(-c4ccccc4C)nnc3c3ccccc23)cc1 | 98 | 97
Cc1cc(C)c2c(C)c(C(=O)N3CCC(c4nc5ccccc5s4)CC3)oc2c1 | 109 | 109
COc1cccc(NC(=O)CSc2nnc(NC(=O)NC3CCCCC3)s2)c1 | 109 | 112
Cc1ccc(NC(=O)C(Cc2ccccc2)n2cccc2)c(C)c1 (stereo not given) | 100 | 103
CCOc1ccc2c(c1)c(=O)c(C(=O)c1ccc(CC)cc1)cn2CC(=O)Nc1ccccc1OC | 107 | 106
Oc1ccc(NCc2ccccc2OCc2ccccc2)cc1 | 101 | 102
Cc1ccc(NC(=O)CC(C)S(=O)(=O)c2ccc3c(c2)NC(=O)CO3)c(Cl)c1 (stereo not given) | 109 | 103
O=C(Cc1ccccc1F)N1CCC(c2nc3c(nnn3Cc3ccc(F)cc3)c(=O)[nH]2)CC1 | 110 | 112
COc1ccccc1N1CCN(C(=O)c2oc3ccccc3c2NC(=O)C(C)Oc2ccccc2)CC1 (stereo not given) | 107 | 109
Cn1c(-n2cccc2)c(-c2c(-c3ccccc3)[nH]c3c2c(=O)[nH]c(=O)n3C)c(=O)[nH]c1=O | 111 | 106
CCOC(=O)c1ccccc1NC(=O)c1ccc2c(Cl)c3c(nc2c1)CCC3 | 109 | 109
Cc1ccnc(NS(=O)(=O)c2ccc(NC(=O)c3ccc(C)c(C)c3)cc2)n1 | 107 | 108
CCOc1ccc(NC(=O)Cn2nnc(C(=O)NCc3cccs3)c2N)cc1 | 115 | 114
CCC(C(=O)Nc1nnc2n1CCS2)c1ccccc1 (stereo not given) | 107 | 115
CC(=O)N1CCCc2cc(S(=O)(=O)Nc3ccc(OC(F)(F)F)cc3)ccc21 | 114 | 113
COC(=O)c1ccc(Cl)cc1NC(=O)N1CCC(CN2CCC(C)CC2)CC1 | 107 | 111
CCCOc1ccc(C2C(=O)N(C3CCCCCC3)CC(=O)N2Cc2ccccc2OC)cc1OC (stereo not given) | 111 | 110

Pulled one by one from the list above:
SMILES | Polio RdRp inh | Polio RdRp inh intensity
Oc1ccc(NCc2ccccc2OCc2ccccc2)cc1 | 101 | 102
CCN(CC)c1ccc(NC(=O)CCCN2C(=O)C(c3ccccc3)Oc3cccnc32)c(C)c1 (stereo not given) | 101 | 106
COC(=O)c1ccc(Cl)cc1NC(=O)N1CCC(CN2CCC(C)CC2)CC1 | 107 | 111

(continued)
SMILES | Polio RdRp inh | Polio RdRp inh intensity
COc1ccc(NC(=O)Cn2nnc(C(=O)NCc3cccs3)c2N)cc1 | 111 | 116
Cn1c(=O)[nH]c(=O)c2c1nc(NCCc1ccccc1)n2Cc1ccc(F)cc1 | 110 | 112
CCOCCn1ccc2c(OCC(=O)NCc3ccc(F)cc3)cccc2c1=O | 108 | 107
Cc1ccc2c(c1)N(C(=O)N1CCC(C(=O)NCCC3=CCCCC3)CC1)CC(C)O2 (stereo not given) | 106 | 106
COc1cc2ccccc2cc1C(=O)N1CCN(c2nc3c(F)cc(F)cc3s2)CC1 | 102 | 100
COc1cc(C(=O)NC(c2ccc(Cl)cc2)c2cc(Cl)c3cccnc3c2O)cc(OC)c1OC (stereo not given) | 89 | 224
O=C(Nc1ccc(F)cc1)c1cccc(N2CCCS2(=O)=O)c1 | 111 | 111
Cc1cccc(NC(=O)N2CCC(n3c(C)nc4cccnc43)CC2)c1 | 112 | 108
COc1cccc(NC(=O)Cn2c(=O)n(-c3ccc(C)cc3)c(=O)c3ccccc32)c1 | 105 | 106
Cc1ccc(CCNc2nc3ccccc3c3nc(-c4cccnc4)nn23)cc1 | 103 | 106
CCCCNC(=O)c1ccc2c(c1)NC(=O)C(C(C)C)N2 (stereo not given) | 104 | 107
CC(=O)Nc1ccc(S(=O)(=O)NCCc2csc3nc(-c4cccc(C)c4)nn23)cc1 | 107 | 113
CCc1cccc(CC)c1NC(=O)Cc1csc(C)n1 | 106 | 104
Cc1cccn2c(=O)cc(CSc3nnc(NC(=O)COc4ccccc4)s3)nc12 | 107 | 116
CCCCn1c(CN2CCN(c3ccc(OC)cc3)CC2)nc2c1c(=O)[nH]c(=O)n2C | 105 | 107
Cc1ccc(C)c(Nc2nn3c(=O)c4ccc(C(=O)NCCC5=CCCCC5)cc4nc3s2)c1 | 111 | 110
COc1ccc(-n2c(SCc3ccccc3)nc3c([nH]c4ccccc43)c2=O)cc1 | 109 | 100
COc1cccc(CSc2nc3n(n2)C(c2cccnc2)C(C(=O)Nc2ccccc2C)=C(C)N3)c1 (stereo not given) | 103 | 107
O=C(Nc1ccc(C(F)(F)F)cc1)c1cc(S(=O)(=O)NC2CCCCCC2)ccc1F | 110 | 112
CCc1ccc(NCc2cccn2-c2nnc(N3CCCCCC3)s2)cc1 | 108 | 108
COc1ccc(-c2noc(COc3ccc(Br)cc3C)n2)cc1OC | 101 | 103
Cc1cc(C)c2c(-n3cccc3)c(C(=O)NCc3cccc(F)c3)sc2n1 | 106 | 108
COCCCNc1nc2c(c(=O)n(Cc3ccccc3)c(=O)n2C)n1C | 112 | 111
Cc1ccc2nc(/C(C#N)=C/c3ccc(-c4ccc(F)cc4F)o3)[nH]c2c1 | 84 | 230
Cc1ccccc1NC(=O)c1cc2ccccc2o1 | 103 | 111
Other records follow:
SMILES | Polio RdRp inh | Polio RdRp inh intensity
Cc1sc2ncn(CC(=O)Nc3ccc(C(C)C)cc3)c(=O)c2c1S(=O)(=O)N1CCN(c2ncccn2)CC1 | 108 | 114
Cc1oc(-c2cccc(Cl)c2)nc1CN1CCC(C(=O)NCCCN2CCN(c3ccc(F)cc3)CC2)CC1 | 104 | 107
Cc1ccc(NC(=O)Cn2nc(C(=O)Nc3ccc(C)cc3)ccc2=O)cc1 | 107 | 107
CC(C)CCNC(=O)c1ccc(NC(=O)N2CCCCc3ccccc32)cc1 | 111 | 110
COc1cccc(CNC(=O)NCc2noc3ccc(C)cc23)c1 | 102 | 104
CCOc1ccc(N(C(C)C(=O)NCCSc2ccc(Cl)cc2)S(C)(=O)=O)cc1 (stereo not given) | 102 | 101
CCCSc1ncc(Cl)c(C(=O)Nc2c(C(=O)Nc3ccc(C)cc3)oc3ccccc23)n1 | 105 | 106
CCc1cccc(NC(=O)CCS(=O)(=O)c2ccc(C)cc2)c1 | 104 | 110
COc1ccc(-c2cc(OC(=O)c3ccccc3)c3c(C)oc(C)c3c(=O)c2)cc1OC | 108 | 122

High-throughput results: PubChem, ICCB-Longwood Screening Facility, Harvard Medical School

This is a subset (hit frequency here may not be typical).
